Screens: PubChem, National Center for Advancing Translational Sciences (NCATS)
Rango release inh = prevents RanGTP from dissociating the Rango-importin beta complex | O95149+P62826 | Biochemical FRET Rango-importin beta, RanGTP-induced dissociation | Potency, µM (doses to about 46.1 µM), for inactives: at the highest dose activity change, negative = inhibition | hit rate 0.071% among 340,000; active means falling FRET ratio curve, often poorly fitted, with flat reads before Ran was added; inconclusive means other falling curves, or compound fluorescence or quenching; inactive means flat or rising ratio curve;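 note: potency is the fitted concentration of half-maximal effect; % of control where 0% means no effect; nearly all actives have a fitted effect of over 45% in size; -100% = wells without RanGTP and RCC1; the record marks most hits as doubtful in a second field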
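Two FRET readings bracket the reaction: one 5 min after compound meets Rango–importin beta, another 45 min after RanGTP-RCC1 (0.6 uM Ran, 0.2 uM RCC1, 2 mM GTP) is added. Only the second defines inhibition.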
miR-21 FLuc = raises the signal of a miR-21 reporter; HeLa miR-21 FLuc reporter, luciferase, 48 h; 340,000 tested, under 10 active; Potency, µM (top dose mostly 38.3 µM), inactives show top-dose reporter change, positive = more light; active = well fitted rising curve with a large enough effect; inconclusive = small, poorly fitted or top-dose-only effect; inactive = no such curve, though single readings can be large or run the other way;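 note: % of control where 0% means no effect; miR-21 action dims this reporter so a rising signal means less miR-21 action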
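Luminescence from a firefly luciferase reporter carrying a miR-21 binding site downstream, stably expressed under a CMV promoter in HeLa cells that make miR-21 endogenously, reports miRNA modulation after 48 h compound exposure up to approximately 40uM final.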
Rango complex inh = inhibitors of Rango-importin beta complex formation; Q14974; hit rate 0.031% among 340,000; AID 540263; Potency, µM (series often up to 92.2 µM), inactives show at the highest dose inhibition of complex formation; Rango CFP/YFP FRET sensor + importin beta, 45 min; active = rising FRET ratio curve, often small or poorly fitted; inconclusive = mostly compound fluorescence or quenching in the first reads; inactive = flat curves in all reads;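 note: potency is the fitted concentration of half-maximal effect; 0% = DMSO wells and 100% = buffer wells lacking importin beta; nearly all actives have a fitted effect of over 15% in size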
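Inhibition scored from the CFP 486 nm/YFP 530 nm FRET ratio 45 min after adding 0.125 microM importin beta to 50 nM Rango biosensor preincubated 5 min with compound (room temperature, PBS with DTT, Tween-20, BSA). No-importin wells as positive control.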
GLA inh pH 4.5 = blocks human alpha-galactosidase A at pH 4.5; purified enzyme, 4-MU-alpha-Gal fluorescence, pH 4.5; activity change, negative = inhibition, % at 105 µM; 230,000 tested, under 10 active; AID 1467; inconclusive = small, poorly fitted or top-dose-only inhibition, or a rising curve; inactive = flat fitted curve, though single readings scatter; no compound was filed as active;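 note: 0% = full activity with enzyme and -100% = basal without enzyme; dose as in the result columns while the protocol names 77 µM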
Target sequence (P06280 whole entry, looked up): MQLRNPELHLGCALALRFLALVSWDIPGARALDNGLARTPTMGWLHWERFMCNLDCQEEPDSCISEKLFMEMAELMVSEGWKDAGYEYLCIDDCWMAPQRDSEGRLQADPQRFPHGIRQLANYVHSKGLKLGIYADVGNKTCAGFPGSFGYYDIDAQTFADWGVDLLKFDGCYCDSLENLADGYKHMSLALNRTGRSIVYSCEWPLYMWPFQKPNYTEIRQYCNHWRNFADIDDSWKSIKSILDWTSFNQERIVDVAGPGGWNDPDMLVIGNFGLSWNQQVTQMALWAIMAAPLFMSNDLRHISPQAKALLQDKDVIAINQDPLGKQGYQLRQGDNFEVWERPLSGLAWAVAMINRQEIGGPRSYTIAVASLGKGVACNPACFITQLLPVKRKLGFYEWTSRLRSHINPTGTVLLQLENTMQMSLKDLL
* marks the source's active call; other numbers are inactive results; ? = inconclusive; nt = no result given; & = joins results of further samples.

The first three records, to show the layout:
SMILES | Rango release inh | miR-21 FLuc | Rango complex inh | GLA inh pH 4.5
O=C(/C=C/c1ccc(Br)cc1)c1ccco1 | 9% | -4% | -0.2% | 6
CCOc1ccc(-c2n[nH]c(C)c2Oc2ccc(OC)cc2)c(O)c1 | -9% | -5% | -0.4% | -6
Cc1ncc2c(c1OC(=O)c1ccc([N+](=O)[O-])cc1)COC(C)(C)OC2 | 6% | -1% | 1.3% | 7

The whole of this part, previewed entries included:
SMILES | Rango release inh | miR-21 FLuc | Rango complex inh | GLA inh pH 4.5
O=C(/C=C/c1ccc(Br)cc1)c1ccco1 | 9% | -4% | -0.2% | 6
CCOc1ccc(-c2n[nH]c(C)c2Oc2ccc(OC)cc2)c(O)c1 | -9% | -5% | -0.4% | -6
Cc1ncc2c(c1OC(=O)c1ccc([N+](=O)[O-])cc1)COC(C)(C)OC2 | 6% | -1% | 1.3% | 7
Cc1ccc(C)c(NC(=O)Cn2nc(C(F)(F)F)cc2C2CC2)c1 | 4% | 0% | 3.5% | 4
COCCNC(=O)C(c1ccc(O)cc1)N(Cc1ccccc1)C(=O)CCC(=O)Nc1ccccn1 (stereo not given) | -3% | 2% | 0.9% | nt
Cc1ccc(SCc2[nH]nc3c2C(c2ccco2)C(C#N)=C(N)O3)cc1 (stereo not given) | 2% | 2% | -1.2% | -6
COC(=O)C1=C(C)N(C)C(C)=C(C(=O)OC)C1c1ccccn1 | 13% | -1% | -6.6% | -15
Cn1c(=O)[nH]c(=O)c2c1nc(N1CCCCC1)n2CCSc1ncccn1 | 51% | nt | 0.0% | nt
COc1ccc(CCC(=O)OCC(=O)Nc2ccccc2)cc1 | -9% | -28% | -1.2% | nt
COc1cc2c(cc1OC)C(C)N(S(=O)(=O)c1cn(C)c(C)n1)CC2 (stereo not given) | 1% | -6% | 0.6% | -11
COc1ccc(Cn2c(=S)[nH]c3cc(OC)c(OC)cc3c2=O)cc1 | -7% | -27% | -1.8% | -6
CCOC(=O)c1c(N)sc2c(OC)c(Br)ccc12 | -8% | -22% | -4.0% | 4
CC(C)Cc1nnc(NC(=O)CN2C(=O)NC3(CC(C)CC(C)(C)C3)C2=O)s1 (stereo not given) | -3% | nt | ? | nt
NS(=O)(=O)c1ccc(CNC(=S)Nc2ccc(Cl)c(Cl)c2)cc1 | -4% | 11% | -0.2% | -14
CC(C)=CCN1CCN(C/C(Cl)=C/c2ccccc2)CC1CCO (stereo not given) | 21% | -3% | 1.8% | -4
O=Cc1ccc(OCc2ccc3ccccc3c2)cc1 | 15% | -47% | -1.9% | nt
CC(C)n1cc(-c2ccc(Cl)cc2)cc(C#N)c1=O | -8% | -10% | -0.9% | 2
O=C1NC(=O)/C(=C\c2ccccc2OCc2cccc([N+](=O)[O-])c2)N1 | 19% | -16% | 0.5% | -5
O=C(Nc1ccc(Nc2ccncc2)cc1)c1ccc([N+](=O)[O-])cc1 | 29% | -2% | 4.2% | -18
CCOC(=O)/C(C#N)=C\c1ccc(OC)c(OC)c1 | -15% | 1% | -1.8% | 6
CC(=O)NC(CC(=O)NCCOc1ccccc1F)c1ccccc1 (stereo not given) | -3% | -3% | -2.4% | nt
CC(=O)NC1=NN(C(C)=O)C(c2ccco2)S1 (stereo not given) | 1% | -1% | 0.5% | -1
O=C(c1cc([N+](=O)[O-])[nH]n1)N1CCSCC1 | -3% | -2% | -0.7% | 0
COc1cccc(/C=N/Nc2ncc(C(F)(F)F)cc2Cl)c1O | -19% | ? | -0.8% | 1
CCOc1ccc(N2CC(C(=O)NNC(=O)c3ccc(Br)cc3)CC2=O)cc1 (stereo not given) | 10% | nt | 0.7% | nt
O=C(O)c1cccc2c1C(=O)N(CC1CCCO1)C2 (stereo not given) | -10% | -3% | 4.0% | -2
CCC(CC)c1nnc(NC(=O)C2CC(=O)N(CCc3ccc(F)cc3)C2)s1 (stereo not given) | -4% | 10% | -2.0% | nt
CN(C)S(=O)(=O)c1cccc(NC(=O)c2ccc(NS(=O)(=O)c3cccs3)cc2)c1 | 2% | nt | 3.6% | nt
CC(C(c1ccc2c(c1)OCO2)c1c(N)n(C)c(=O)n(C)c1=O)[N+](=O)[O-] (stereo not given) | -16% | nt | 0.4% | nt
NS(=O)(=O)c1ccc(CNC(=O)c2ccncc2)cc1 | -9% | 0% | 0.3% | nt
Cc1coc2cc3oc(=O)c(CCC(=O)N[C@@H](CCCNC(N)=O)C(=O)O)c(C)c3cc12 | -7% | -2% | 2.1% | nt
CCOC(=O)c1ccc(N2C(=O)c3n[nH]c(-c4ccco4)c3C2c2ccc([N+](=O)[O-])cc2)cc1 (stereo not given) | 2% | ? | 0.1% | -4
COc1ccccc1-c1ccc(=O)n(CC(=O)NC(C)(C)C)n1 | 8% | 2% | 2.1% | -6
COc1ccc(C(CNC(=O)c2ccc(NS(=O)(=O)c3ccc(F)cc3)cc2)N2CCOCC2)cc1 (stereo not given) | 11% | -1% | -0.6% | nt
CC1(C)CC2CC(C)(CN2C(=O)C23CCC(C)(C(=O)C2)C3(C)C)C1 (stereo not given) | 5% | 1% | -0.2% | 18
Cc1ccc(C)c(N2CCN(CCCNC(=O)Cn3cccc3C(=O)c3ccccc3C)CC2)c1 | 2% | 29% | 3.4% | -17
Cc1cccn2c(CN(C)C3CCCc4ccccc43)c(C(=O)N3CCOCC3)nc12 (stereo not given) | -10% | 11% | 0.9% | 4
Cc1nn(C)c(C)c1S(=O)(=O)N(CC(=O)NCCCOC(C)C)c1ccc(C(C)C)cc1 | 0% | -1% | -0.7% | -14
COc1ccc(S(=O)(=O)N2CCC(C(=O)NCCc3c[nH]c4ccccc34)CC2)cc1 | 12% | 6% | -1.6% | nt
COCCCN1C(=O)C(=O)/C(=C(/O)c2ccc(S(=O)(=O)N3CCOCC3)cc2)C1c1ccc(Cl)cc1 (stereo not given) | 2% | 1% | -0.5% | nt
CCOC(=O)C(NS(=O)(=O)c1ccccc1)(C(F)(F)F)P(=O)(OCC(C)C)OCC(C)C (stereo not given) | -12% | 8% | -0.2% | 6
O=C(COc1ccc(S(=O)(=O)N2CCCC2)cc1Cl)NCc1cccnc1 | 31% | 4% | -3.3% | nt
Cc1ccc(-n2c(O)c(C=NCc3ccccn3)c3ccccc3c2=O)cc1 | 1% | -6% | -1.6% | -3
Cc1ccc2nc(SCc3ccc([N+](=O)[O-])cc3)nc(C)c2c1 | -8% | -2% | 0.5% | 1
CCc1cc(C(=O)N2CCCC(N3CCN(c4cccc(C(F)(F)F)c4)CC3)C2)n(C)n1 (stereo not given) | -7% | 27% | -0.3% | nt
Cc1ccc(N(C)S(=O)(=O)c2c(C)[nH]c(C)c2C(=O)N2CCCC2)cc1 | -8% | 1% | 0.3% | nt
COC(=O)c1cc(NC(=O)CC2NC3CCCCC3NC2=O)cc(C(=O)OC)c1 (stereo not given) | -1% | -3% | -2.7% | 6
CCOC(=O)c1sc(N2C(=O)C(O)=C(C(=O)c3ccc(C)o3)C2c2ccc(OC)c(OC)c2)nc1C (stereo not given) | ? | -5% | ? | nt
CCOc1ccc(C(=O)CCN2CCCCCC2)cc1 | 9% | ? | -2.4% | 3
Cc1occc1C(=O)NNC(=O)c1ccc(S(=O)(=O)N(C)C)cc1 | -6% | nt | 4.7% | nt

(listing goes on)
SMILES | Rango release inh | miR-21 FLuc | Rango complex inh | GLA inh pH 4.5
C=CCN(c1ccc(C(=O)Nc2ccc(C)cc2)cc1)S(C)(=O)=O | -1% | 4% | -3.6% | 7
CC1(C)CC(NC(=O)CC(c2ccccc2)c2ccccc2)CC(C)(C)N1 | 32% | -3% | 1.5% | -6
CC(C)(C)c1ccc(C(=O)c2c[nH]c(C(=O)NCc3cccs3)c2)cc1 | -1% | -10% | 0.9% | 2
CCOC(=O)C1=C(CNCc2ccc(C)cc2)NC(=O)NC1c1cc(C)ccc1C (stereo not given) | -11% | 15% | 0.0% | -3
Cc1nnc(C)n1/N=C/c1cccs1 | 6% | -4% | -1.1% | 8
COCCn1c(C)cc(C(=O)CN2CCCCC2)c1C | 15% | -7% | 1.4% | -3
CCC(C)NC(=O)CSc1nc2c(sc(=S)n2Cc2ccco2)c(=O)n1-c1ccccc1 (stereo not given) | -8% | -1% | -0.1% | -6
N#Cc1ccc(S(=O)(=O)Nc2ccccc2N2CCOCC2)cc1 | 0% | nt | -0.2% | nt
O=C(NNC(=O)c1cc2c(s1)CCCC2)c1ccccc1 | -22% | -54% | -2.3% | 8
Cc1ccccc1OC(=O)c1cccnc1 | 11% | -14% | -0.2% | nt
CCOc1ccccc1C(O)C1=CC(=O)c2ccccc2C1=O (stereo not given) | 0% | nt | -1.7% | nt
COc1cc2ccc(=O)oc2c(O[C@@H]2O[C@H](CO)[C@@H](O)[C@H](O)[C@H]2O)c1O | ? | 0% | ? | nt
O=C1C2C3C=CC([C@@H]2C(=O)N1c1nccs1)C31CC1 (stereo not given in full) | 2% | 1% | 0.4% | -4
Cc1cc(C)cc(C(=O)N2CCN(c3ccccn3)CC2)c1 | -1% | ? | -4.1% | 1
CC(C)(C)NC(=O)NC(=O)CSc1ccc(S(=O)(=O)N2CCCCC2)cn1 | ? | nt | -1.7% | nt
O=C1C2CC=CCC2C(=O)N1Cc1nnc(-c2ccccc2Br)o1 (stereo not given) | -18% | -39% | ? | 4
Fc1ccc(OCc2nnc(-c3ccccc3Br)o2)c(Cl)c1 | -7% | -102% | -1.2% | nt
CCOC(=O)c1c(N)ssc1=S | -1% | -13%&0% | ? | -4&2
O=C(NNC1=NC2(CCCC2)Cc2ccccc21)c1cccnc1 | -6% | 5% | 0.2% | -3
Cc1ccc(S(=O)(=O)Nc2c(C)[nH]c(=O)[nH]c2=O)cc1C | 16% | -5% | 0.2% | 3

Retrieved by structure from the list above:
SMILES | Rango release inh | miR-21 FLuc | Rango complex inh | GLA inh pH 4.5
O=C1C2C3C=CC([C@@H]2C(=O)N1c1nccs1)C31CC1 (stereo not given in full) | 2% | 1% | 0.4% | -4
O=C(NNC1=NC2(CCCC2)Cc2ccccc21)c1cccnc1 | -6% | 5% | 0.2% | -3
O=C1C2CC=CCC2C(=O)N1Cc1nnc(-c2ccccc2Br)o1 (stereo not given) | -18% | -39% | ? | 4
Cc1ccc(S(=O)(=O)Nc2c(C)[nH]c(=O)[nH]c2=O)cc1C | 16% | -5% | 0.2% | 3

Following part
SMILES | Rango release inh | miR-21 FLuc | Rango complex inh | GLA inh pH 4.5
CC(C)N(Cc1nc(-c2ccc(Cl)cc2)no1)C(=O)c1cccs1 | 2% | 21% | -2.7% | -11
Cc1ccc(S(=O)(=O)NCc2ccco2)cc1C | 5% | -10% | -2.2% | 4
CC(C)(C)c1ccc(NC(=O)COC(=O)c2ccc3ncsc3c2)cc1 | -4% | nt | 0.5% | nt
CC1(C)CC2CC(C)(CN2C(=O)COC(=O)c2cccnc2Cl)C1 (stereo not given) | 27% | nt | -1.4% | nt
C=CCn1c(COc2ccc(F)cc2)nnc1SCC(=O)NC(=O)NCc1ccco1 | -16% | -2% | -2.7% | -12
Cc1ccc(Nc2c(-c3ccc(N4CCOCC4)cc3)nc3cnccn23)cc1 | ? | -70% | ? | -4
CC(C)N(Cc1ccccc1)C(=O)COC(=O)c1c(F)cccc1F | 3% | nt | 0.0% | nt
COc1cc(NC(=O)C/C(C)=N/NC(=O)C(=O)NCCO)c(OC)cc1Cl | -15% | 4% | -1.0% | -11
CC(C)(C)c1ccc(-c2nnc(SCC(=O)Nc3sc4c(c3C#N)CCCC4)o2)cc1 | 6% | -9% | -0.4% | ?
O=C(C(Cc1ccccc1)n1cccc1)N1CCN(c2cccc(Cl)c2)CC1 (stereo not given) | 6% | 15% | 1.3% | -2
CC(C)(CO)Cc1cc(C(C)(C)C)c(O)c(C(C)(C)C)c1 | -8% | nt | ? | ?
O=C(Cn1cc(C(F)(F)F)ccc1=O)Nc1ccc(N2CCOCC2)cc1 | 4% | 0% | -3.3% | 8
Cn1nccc1C(=O)NC1CCCc2c1cnn2-c1cc(F)cc(F)c1 (stereo not given) | 2% | 1% | 0.7% | nt
CCOCCCNC(=O)c1cn2c3c(ccc(Cl)c3c1=O)OC(C)C2 (stereo not given) | 8% | 1% | -0.4% | nt
CCN(CC)S(=O)(=O)c1cccc(C(=O)NCC2(N3CCOCC3)CCCCC2)c1 | 25% | nt | 2.2% | nt

A portion of the library (hit frequency here may not be typical).
